# AID923 = qHTS Assay for Allosteric/Competitive Inhibitors of Caspase-1: Spectroscopic Profiling in AFC Spectral Region; compound fluorescence, AFC spectral region (405/520 nm); almost no hit is shown here; Potency, µM (series often up to 57.5 µM), for inactives: top-dose fluorescence increase, most hits filed as activators; 75,000 tested, 1.1% active; AID 923, 2007; active = well fitted activation curve with a large enough effect; inconclusive = small, poorly fitted or top-dose-only effect;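 note: potency is the fitted concentration of half-maximal effect; 0% is about no effect; scaled to a free AFC standard on each plate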
#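 Compound autofluorescence profiled at 405 nm ex/520 nm em during kinetic caspase 1 run (50 nM enzyme, 5 uM Ac-WEHD-AFC, HEPES pH 7.5, 10 mM DTT). Titration up to 57 uM; baseline from regression intercept, normalized to AFC standard curve.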
# A647 autofl = compound fluoresces in the A647 spectral region; Compound fluorescence, A647 channel (570/671 nm), Tris buffer; max dye-equivalent concentration, M; 59,000 tested, under 10 active; AID 592; active means above 1 µM dye equivalent; inconclusive means 0.1 to 1 µM; inactive means 0.1 µM or less;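 note: values scaled relative to a standard on each plate; highest value over a series up to 38 µM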
#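 Each compound's intrinsic fluorescence at 570 nm excitation and 671 nm emission is measured across its concentration series in 100 mM Tris, pH 8.0, after 15 min at room temperature, and reported relative to an A647 curve.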
# Resorufin fluor = compound fluoresces in the resorufin spectral region; Compound fluorescence, resorufin region 547/598 nm, buffer; stronger effect = higher value; max dye-equivalent concentration, M; 59,000 tested, 0.04% active; AID 588; active = above 10 nM dye equivalent; inconclusive = 1 to 10 nM; inactive = 1 nM or less; a few of its hits are not listed in these tables; note: highest value over a series up to 38 µM
#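 Tris 100 mM pH 8.0; compound added, 15 min RT; CCD imager read, ex 547 nm/em 598 nm; signal normalized to resorufin standard curve (six concentrations per plate) as dye-equivalent concentration.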
# TSHR ag = activates the human thyroid stimulating hormone receptor; 73,000 tested, 0.48% active; Potency, µM (top dose mostly 57.1 µM), for the others: top-dose activation, hits mostly activators; HEK293-CNG-TSHR cells (CNG channel as cAMP sensor), membrane potential dye, cAMP; P16473; active = well fitted activation curve of enough size with the parental cells flat; inconclusive = any curve in the parental cells; inactive = parental cells flat and receptor cells flat or falling; note: potency is the fitted concentration of half-maximal effect; % of control where 0% means no effect; weak receptor curves with flat parental cells got no call and are not listed
# Target sequence (P16473 whole entry, looked up): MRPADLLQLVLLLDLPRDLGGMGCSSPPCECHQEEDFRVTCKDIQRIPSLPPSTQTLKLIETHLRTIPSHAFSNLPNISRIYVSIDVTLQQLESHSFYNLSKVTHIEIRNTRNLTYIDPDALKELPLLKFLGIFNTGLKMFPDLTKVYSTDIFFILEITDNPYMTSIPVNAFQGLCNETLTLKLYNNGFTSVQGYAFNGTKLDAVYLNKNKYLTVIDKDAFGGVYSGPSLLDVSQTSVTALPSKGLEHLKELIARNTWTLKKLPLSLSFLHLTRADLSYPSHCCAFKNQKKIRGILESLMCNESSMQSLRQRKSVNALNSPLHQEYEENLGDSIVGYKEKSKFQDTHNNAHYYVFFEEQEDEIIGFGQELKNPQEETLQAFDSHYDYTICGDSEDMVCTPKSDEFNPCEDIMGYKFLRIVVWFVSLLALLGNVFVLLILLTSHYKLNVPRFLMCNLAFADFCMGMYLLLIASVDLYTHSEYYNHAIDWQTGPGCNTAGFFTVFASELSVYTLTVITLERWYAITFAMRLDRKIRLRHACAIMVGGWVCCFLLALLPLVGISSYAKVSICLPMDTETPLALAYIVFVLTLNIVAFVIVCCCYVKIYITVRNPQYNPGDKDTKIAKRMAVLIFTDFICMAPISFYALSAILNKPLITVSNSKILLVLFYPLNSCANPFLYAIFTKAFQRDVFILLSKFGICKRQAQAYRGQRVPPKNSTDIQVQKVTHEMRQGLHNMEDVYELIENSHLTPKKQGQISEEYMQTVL
#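 HEK 293 cells stably expressing TSHR and a cAMP-gated CNG channel; parental CNG-only cells as counterscreen. Cells preloaded 60 min with membrane potential dye plus 100 uM RO 20-1724, then compound 30 min; fluorescence read at 590 nm.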
# A488 autofl = compound fluoresces in the A488 spectral region | compound autofluorescence, A488 spectral region, dye equivalency; stronger effect = higher value | max dye equivalency, M | 59,000 tested, 0.1% active; active = above 10 nM dye equivalent; inconclusive = 1 to 10 nM; inactive = 1 nM or less; about half of its hits are not listed in these tables;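 note: highest value over a series up to 38 µM; compound alone in buffer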
#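 Autofluorescence read at ex 480/em 540 nm after 15 min RT in 100 mM Tris pH 8.0; compound signal normalized to A488 standard series on each plate, reported as dye-equivalent concentration at each test concentration.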
# Starred values were filed as active, the others as inactive; i = inactive; ? = inconclusive; . = no result given; & = joins results of further samples; [ ] = dose if it differs, or a comment.
SMILES	AID923	A647 autofl	Resorufin fluor	TSHR ag	A488 autofl
COc1ccc(CCNC(=O)C2CCN(S(=O)(=O)c3cc(OC)ccc3OC)CC2)cc1	-2.0%	1.98e-08	i	14.1%	i
Cc1cc2nc(-c3cccnc3SCC(=O)NCc3ccco3)[nH]c2cc1C	20.2%	2.49e-08	i	4.3%	i
CC1(C)CC(C)(O)P(=O)(c2ccccc2)O1 (stereo not given)	1.1%	.	.	28.3%[11.4 µM]	.
CC(C)C[C@H](NC(=O)NC(C)C)C(=O)O	-2.1%	1e-09	i	-1.2%	i
CC1Cc2ccccc2N1C(=O)c1cnsn1 (stereo not given)	-2.4%	3.63e-08	i	6.3%	i
COc1ccc(C2(O)CCN(Cc3nnnn3Cc3ccc(C)cc3)CC2)cc1	-2.6%	1e-09	i	3.3%	i
CC(C(=O)N1CCCCC1)N1C(=O)c2ccccc2C1=O (stereo not given)	.	4.09e-08	i	.	i
COc1ccc(NC(=O)CCNS(=O)(=O)c2ccc3c(c2)c(=O)n(C)c(=O)n3C)cc1	0.7%	2.84e-08	i	-2.1%	i
CCSc1nc(N)c(C#N)c(-c2ccccc2Cl)c1C#N	.	6.88e-08	i	.	i
COCC(=O)NC(c1ccccc1)c1ccccc1	-0.8%	1.3e-08	i	?	i
Cc1nc2c(C(=O)NCc3ccccc3)c[nH]n2c(=O)c1Cl	-1.3%	1e-09	i	23.8%	i
N=C(N)SCCc1cnc[nH]1	-0.4%&5.5%	1e-09	i	2.3%&4.8%	i
CCOc1ccc(NS(=O)(=O)c2ccc3[nH]cc(C(=O)NCC4CCCO4)c(=O)c3c2)cc1 (stereo not given)	-0.6%	1.93e-08	i	-3.9%	i
CC(=O)c1c(C)[nH]c(C(=O)N2c3ccccc3CC2C)c1C (stereo not given)	-2.9%	.	.	2.8%	.
Cc1cccnc1NCC(O)COc1ccccc1 (stereo not given)	-0.3%	1e-09	i	?	i
CCOC(=O)C1C(=O)NC(N2CCCCC2)=NC1c1ccco1 (stereo not given)	-0.4%	4.45e-08	i	-6.7%	i
COc1cc(OC)cc(C(=O)Nn2c(C)nc3ccccc3c2=O)c1	0.1%	1.89e-08	i	6.6%	i
CCN(CC)C(=O)C1CC(c2ccc(OC)cc2)=NO1 (stereo not given)	-0.2%	1e-09	i	2.3%	i
COc1ccc(-c2nc3nc(C)cc(C)n3n2)cc1	-0.4%	5.3e-09	i	-3.4%	i
N#CC1=C(Nc2ccc(Br)cc2)CCC1	-1.2%	.	.	6.6%	.
CC(C)COC(=O)NCCOC(=O)Nc1cccc(Cl)c1	-0.6%	1e-09	i	.	i
O=C(OCC(=O)N1c2ccccc2Sc2ccccc21)C1CC(=O)N(Cc2ccco2)C1 (stereo not given)	1.9%	1e-09	i	.	i
Cc1cc(C)n(C(=O)CN2C(=O)CCC2=O)n1	.	4.68e-08	i	.	i
COc1ccc2c(c1)c(C(=O)OCCN(C)C)c(C)n2C	-3.1%	2.57e-08	i	13.6%	i
N#CCSc1nnc2sc3ccccc3n12	-1.2%	.	.	-5.1%	.

# (cont.)
SMILES	AID923	A647 autofl	Resorufin fluor	TSHR ag	A488 autofl
CCC1(C)Cc2c(C#N)c(N)n(N)c(=S)c2CO1 (stereo not given)	0.4%	3.1e-09	i	-13.3%	i
CCc1cccc(NC(=O)c2ccc(NS(=O)(=O)c3c(C)noc3C)cc2)c1	0.3%	3.8e-09	i	-11.3%	i
C=CCNC(=O)CCCCCNS(=O)(=O)c1ccc(OC)cc1	0.8%	1e-09	i	3.9%	i
CC(C)Oc1c(Cl)cc(CNC(C)(C)CO)cc1Cl	-3.6%	5.47e-08	i	20.9%	i
O=C(NC1CCCCCC1)C1CCN(C(=O)Cc2ccccc2)CC1	-0.7%	.	.	10.4%	.
COc1ccc(-c2csc(N(CC3CCCO3)C(=O)c3cccs3)n2)cc1 (stereo not given)	1.6%	3.3e-09	i	?	i
Cc1nn(C)c(C)c1S(=O)(=O)N1CCCC(C(=O)NCC2COc3ccccc3O2)C1 (stereo not given)	-3.2%	.	.	?	.
CCOC(=O)c1cc(NC(=O)N2CCCc3ccccc32)c(C)nc1C	-2.5%	1.41e-08	i	-2.5%	i
O=C(CSc1ccc2nnc(-c3cccc(F)c3)n2n1)NCc1ccco1	-1.1%	1e-09	i	?	i
CCOC(=O)C1=C(C)NC(=O)NC1/C=C/c1ccccc1 (stereo not given)	-2.6%	9e-09	i	13.6%[11.4 µM]	i
COc1ccc(-c2nnc3c4ccccc4c(C)nn23)cc1S(=O)(=O)N1CCN(CCO)CC1	0.9%	3.5e-09	i	.	i
CCOC(=O)COc1ccc(S(=O)(=O)Nc2ccc3c(c2)OCCO3)cc1	3.4%	1e-09	i	13.9%	i
COC(=O)c1ccccc1NC(=O)c1cc(-c2cccs2)on1	-0.1%	2.3e-09	i	-4.4%	i
N#Cc1c2n(c3c(=O)n(Cc4ccccc4Cl)cnc13)CCCCC2	-1.3%	2.02e-08	i	.	i
O=C(c1ccc2c(c1)OCO2)[C@@H]1[C@@H]2C(=O)N(C3CCCCC3)C(=O)[C@@H]2C2c3ccccc3C=CN21 (stereo not given in full)	6.4%	4.52e-08	i	-19.9%	i
CCNC(=O)CC1SC(=Nc2cccc(Cl)c2C)N(C)C1=O (stereo not given)	1.7%	4.5e-09	i	6.4%	i
C#CCCCO/N=C1/[C@H]2O[C@@H]2[C@@H](O)[C@H]2[C@H]1CCn1c(=O)n(C)c(=O)n12	-1.0%[11.5 µM]	.	.	-5.1%[11.4 µM]	.
N#Cc1nc(COc2ccc(Cl)cc2)oc1N1CCN(Cc2ccccc2)CC1	.	1e-09	i	.	i
CC(C)(C)S(=O)(=O)c1ccc2nc3c(n2c1)CCCC3	0.0%	1e-09	i	-1.3%	i
O=C(NC1CCCCC1)c1ccc(Cc2nc3ccccc3[nH]2)cc1	0.2%	.	.	-5.4%	.
CC(C)(CNS(=O)(=O)c1ccc(F)cc1)CNS(=O)(=O)c1ccc(F)cc1	-2.1%	5.3e-09	i	7.7%	i
CSc1ccc2nnc(-c3cccc(F)c3)n2n1	-1.8%	1.8e-09	i	4.9%[11.4 µM]	i
CCCCOC(=O)CSc1nc(N)c(C#N)c(-c2ccc(OC)cc2)c1C#N	.	5.93e-08	i	.	i
Cc1ccccc1Cn1nc(C)c(NC(=O)c2noc3c2CCc2ccccc2-3)c1C	-0.5%	.	.	6.5%	.
Cc1ccccc1Cn1cc(NC(=O)c2noc3c2CC(C(C)(C)C)CC3)cn1 (stereo not given)	-0.6%	1.48e-08	i	8.7%	i

# Quoted from the listing:
# Reading for `O=C(NC1CCCCC1)c1ccc(Cc2nc3ccccc3[nH]2)cc1` in AID923: 0.2%
# Reading for `CC(C)C[C@H](NC(=O)NC(C)C)C(=O)O` in AID923: -2.1%

# Next section.
SMILES	AID923	A647 autofl	Resorufin fluor	TSHR ag	A488 autofl
O=C(COc1cc(=O)n2c(n1)SCCC2)c1ccccc1	-0.6%	.	.	5.1%	.
COC(=O)C1=C(N)Oc2cc(C)n(C)c(=O)c2C1c1ccc(Cl)cc1 (stereo not given)	-1.5%	1.77e-08	i	5.4%	i
Cn1c(=O)c(C(=O)CN2CCCc3ccccc32)c(N)n(Cc2ccccc2)c1=O	3.6%	1.09e-08	i	-14.8%	i
Cc1noc(C)c1S(=O)(=O)Nc1ccc(C(=O)NCCc2ccccc2)cc1	0.4%	1e-09	i	8.2%	i
CCC(c1nnnn1Cc1ccco1)N(Cc1cc2cc(OC)ccc2[nH]c1=O)C1CCCCC1 (stereo not given)	9.3%	8.2e-09	i	?	i
Cc1c2c([n+]3n1CCC3)CC(C)(C)CC2=O	.	4.57e-08	i	.	i
CCCCn1c(=O)c2ccccc2c2ccccc2c1=O	2.8%	4.1e-09	i	22.4%	i
CCOC(=O)COc1ccc(S(=O)(=O)N2CCc3ccccc3C2)cc1	0.5%	8.4e-09	i	23.8%	i
CC/C(=N\O)c1ccc(OC)c(OC)c1	.	2.14e-08	i	.	i
CCC(c1nnnn1C1CCCCC1)N(Cc1ccco1)Cc1cc2ccc(OC)cc2[nH]c1=O (stereo not given)	17.8%	3.98e-08	i	?	i
CCOCCOC(=O)C1=C(C)Nc2ccc(C)cc2S1	0.5%	4.56e-08	i	-15.7%	i
O=C(c1ccco1)N(Cc1cc2ccccc2[nH]c1=O)C1CCCCC1	-0.2%	1e-09	i	18.5%	i
CC1=C(C(=O)Nc2cccc(C)n2)C(c2ccc3c(c2)OCO3)C2=C(CC(c3ccco3)CC2=O)N1 (stereo not given)	18.0%	3.6e-09	i	.	i
O=C(NCc1ccco1)c1noc2c1CCCCC2	-0.5%	7.5e-09	i	-4.8%	i
Cn1nnnc1SCC(=O)NC(=O)NCc1ccccc1	1.4%	9.4e-09	i	-1.2%	i
CCOC(=O)N1CCC(NC(=O)c2csc3c2CCCC3)CC1	-1.7%	.	.	3.1%	.
Cc1cc(C)cc(Nc2cc(=O)n(C3CCCCC3)c(=O)[nH]2)c1	-1.4%	1e-09	i	.	i
O=C(CCn1c(=O)c2ccccc2n(CC(=O)NCCC2=CCCCC2)c1=O)NCc1ccco1	-0.7%	3.07e-08	i	-3.2%	i
Cn1c(=O)n(Cc2ccccc2F)c2ccccc21	0.1%	1.9e-09	i	?	i
CCN(CC)S(=O)(=O)c1cccc(C(=O)Nc2nc3cc4c(cc3s2)OCCO4)c1	20.1%	1e-09	i	2.3%[11.4 µM]	i
CCOc1ccccc1Nc1nc(N)nc(CN(C)C2CCCCC2)n1	0.1%	4.3e-09	i	16.8%	i
CN1CCN(c2ncc3nc(CCc4ccccc4)c(=O)n(Cc4ccc(F)cc4)c3n2)CC1	5.6%	2.9e-09	i	?	i
CCc1nc(NCCCn2ccnc2)c2oc3ccccc3c2n1	-0.6%	2.64e-08	i	7.7%	i
CCOC(=O)/C(C#N)=C1\Nc2ccccc2N=C1N(CC(C)C)CC(C)C	.	4.7e-09	i	.	i
N/C(CC(=O)Nc1cccc(C(F)(F)F)c1)=N/O	-0.9%	.	.	2.2%	.

# (cont.)
SMILES	AID923	A647 autofl	Resorufin fluor	TSHR ag	A488 autofl
CCCNC(=O)CS(=O)Cc1nc(-c2ccc(OC)cc2)oc1C (stereo not given)	1.3%	.	.	?	.
Cn1c(N2CCN(C(=O)NCc3ccccc3)CC2)nc2ccccc21	-1.4%	1.7e-09	i	-10.1%	i
O=C(NS(=O)(=O)c1ccccc1Cl)c1ccc[nH]1	4.4%	1.48e-08	i	-1.9%	i
COc1ccc(-n2c(SCC(=O)Nc3ccc(C(=O)O)cc3)nnc2-c2cccs2)cc1	2.6%	2.01e-08	i	4.7%	i
CC1(C)CC(=O)C=C(NCCc2ccc(S(N)(=O)=O)cc2)C1	0.3%	.	.	5.0%[11.4 µM]	.
COc1ccc(C(C)=O)c2c1OCCO2	-1.4%	3.93e-08	i	-2.5%	i
COc1cccc(C(=O)Nc2ccc(C)cc2)c1	0.1%	2.54e-08	i	-45.2%[inhibitor]	i
FC(F)(F)c1ccc(N2CCOCC2)c(Nc2nc3ccccc3n3cnnc23)c1	0.9%	8.5e-09	i	?	i

# Reformatted with each value named: entries from further up
molecule: CC1(C)CC(=O)C=C(NCCc2ccc(S(N)(=O)=O)cc2)C1
  AID923 = 0.3%
  A647 autofl = .
  Resorufin fluor = .
  TSHR ag = 5.0%[11.4 µM]
  A488 autofl = .

molecule: COc1ccc(C(C)=O)c2c1OCCO2
  AID923 = -1.4%
  A647 autofl = 3.93e-08
  Resorufin fluor = i
  TSHR ag = -2.5%
  A488 autofl = i

molecule: COc1cccc(C(=O)Nc2ccc(C)cc2)c1
  AID923 = 0.1%
  A647 autofl = 2.54e-08
  Resorufin fluor = i
  TSHR ag = -45.2%[inhibitor]
  A488 autofl = i

# A portion of the library; count on the stated rates, not on these rows.
